MITF inh: inhibitors of MITF, primary screen, MITF inhibitor project, cell-based, luminescence. TRPM1 promoter luciferase, 24 h. inhibition, % (no concentration beside the values). 37,000 compounds, 0.28% hits;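 active = most replicates at 85% or more, or half of them and the mean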;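 also: human melanocyte line stably carrying TRPM1 promoter luciferase reporter; 0% = vehicle wells and 100% = a positive control; the first replicate is given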
YB-1 expr inh: inhibitors of YB-1 gene expression, primary screen, cell-based, fluorescence; U2OS, qRT-PCR YB-1 vs CDIP delta delta Cp, 16 h; stronger effect = higher value; zero = DMSO, each unit about twofold; delta delta Cp (YB-1 minus CDIP) (test concentration not listed); 30,000 compounds, 0.37% hits; AID 434959, 2010;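 active = delta delta Cp rounded down to an integer at or above 3, about 3 SD of DMSO wells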;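 also: higher means less YB-1 transcript or more CDIP transcript relative to DMSO; stock transfer was 100 nL into about 100 µL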
An asterisk follows results filed as active; / = not tested or not shown. Not all compounds are listed; rates above refer to the full screens.

#1 O=C1c2ccccc2C(=O)N1Cc1nc2ccccc2c(=O)n1-c1ccc(Br)cn1
#2 COc1ccc(CC2(CCc3ccncc3)C(=O)NC(=O)N(c3cccc(C)c3)C2=O)c(OC)c1 (configuration not stated)
#3 O=[N+]([O-])c1ccccc1CNCCc1c[nH]c2ccccc12
#4 C[C@H]1CN([C@@H](C)CO)C(=O)CCCn2nncc2CO[C@@H]1CN(C)C(=O)Oc1ccccc1
#5 C[C@@H]1CN([C@H](C)CO)C(=O)CCCn2nncc2CO[C@@H]1CN(C)C(=O)Oc1ccccc1

assay / entry	1	2	3	4	5
MITF inh	4	-24	-13	/	/
YB-1 expr inh	/	/	/	-0.5	-0.27

An excerpt from above in order of molar mass, ascending.
#3 O=[N+]([O-])c1ccccc1CNCCc1c[nH]c2ccccc12
#4 C[C@H]1CN([C@@H](C)CO)C(=O)CCCn2nncc2CO[C@@H]1CN(C)C(=O)Oc1ccccc1
#1 O=C1c2ccccc2C(=O)N1Cc1nc2ccccc2c(=O)n1-c1ccc(Br)cn1
#2 COc1ccc(CC2(CCc3ccncc3)C(=O)NC(=O)N(c3cccc(C)c3)C2=O)c(OC)c1 (configuration not stated)

assay / entry	3	4	1	2
MITF inh	-13	/	4	-24
YB-1 expr inh	/	-0.5	/	/

(more compounds)
#6 C[C@H](CO)N1C[C@H](C)[C@H](CN(C)C(=O)Oc2cccc3ccccc23)OCc2cnnn2CCCC1=O
#7 C[C@H]1CN([C@@H](C)CO)C(=O)CCCn2nncc2CO[C@H]1CN(C)C(=O)Oc1cccc2ccccc12
#8 C[C@@H]1CN([C@@H](C)CO)C(=O)CCCn2cc(nn2)CO[C@@H]1CN(C)C(=O)Oc1cccc2ccccc12
#9 C[C@H](CO)N1C[C@H](C)[C@H](CN(C)C(=O)Oc2cccc3ccccc23)OCc2cn(nn2)CCCC1=O
#10 C[C@H]1CN([C@@H](C)CO)C(=O)CCCn2cc(nn2)CO[C@H]1CN(C)C(=O)Oc1cccc2ccccc12

assay / entry	6	7	8	9	10
MITF inh	/	/	/	/	/
YB-1 expr inh	0.6	-0.31	-0.94	0.079	0.17

From PubChem BioAssay
